Ba CapD inh = blocks the Bacillus anthracis CapD enzyme | purified CapD enzyme, fluorescence intensity read-out; active compounds read low; some hits fall short of the stated cut | z-score (test concentration not listed) | hit rate 0.23% among 140,000;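 active = z-score under -4 in either of two replicates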;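 also: stock transfer was 100 nL into about 40 µL; score is relative to mean and spread of the plate; one replicate is shown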
AID504770 = growth inhibitors of E. coli YBA685 in a screen for V. cholerae RctB (chromosome II replication) inhibitors; hit rate 0.27% among 130,000; AID 504770; E. coli YBA685 rctB-dependent plasmid, OD600 growth, 3 h; active compounds read low; z-score (test concentration not listed);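 active = z-score under -2 on both plates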;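 also: wells of about 30 µL received 100 nL stock; score is relative to mean and SD of the test wells; the first replicate is given; strong numbers were not always called active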
* = called active by the depositor.

NS(=O)(=O)c1ccc(-n2ncc3ccccc3c2=O)cc1 was read as Ba CapD inh 0.055.
`CC(=O)Oc1ccc(C2(C)CC(C)(C)NC(=S)N2c2cccc(C(F)(F)F)c2)c(OC(C)=O)c1` (stereo not given) gave Ba CapD inh -0.29.
Screening O=C(CCCc1nc2ccccc2s1)NC1=NCCS1 returned AID504770 -0.45.
Cc1noc(C)c1C(=O)Nc1ccc2c(c1)C(=O)OC2 was read as Ba CapD inh 3.2 and AID504770 -0.1.
`Cc1cc(C)c2c(-n3cccc3)c(C(=O)N3CCC(C)CC3)sc2n1` gave Ba CapD inh -0.1 and AID504770 -1.5.
Screening Cc1cc(C(=O)NC2CCCC2)on1 returned Ba CapD inh -1.1 and AID504770 -0.35.
Cc1ccc(Cl)cc1NCN1C(=O)CNC1=S was read as Ba CapD inh 0.78 and AID504770 -0.4.
`CCCN(c1ccc(OCC)cc1)c1ncnc2nc[nH]c12` gave Ba CapD inh -0.53 and AID504770 -0.2.
`O=C(Cn1c2ccccc2c(=O)c2cc([N+](=O)[O-])ccc21)Nc1ccc(Oc2ccccc2)cc1` gave Ba CapD inh 0.47.
For O=C(Nc1cccn1-c1ncc(C(F)(F)F)cc1Cl)N1CCOCC1 the results were Ba CapD inh 0.04.

Some of these compounds in order of count of non-hydrogen atoms, smallest number first:
Screening Cc1cc(C(=O)NC2CCCC2)on1 returned Ba CapD inh -1.1 and AID504770 -0.35.
NS(=O)(=O)c1ccc(-n2ncc3ccccc3c2=O)cc1 was read as Ba CapD inh 0.055.
`CCCN(c1ccc(OCC)cc1)c1ncnc2nc[nH]c12` gave Ba CapD inh -0.53 and AID504770 -0.2.
For O=C(Nc1cccn1-c1ncc(C(F)(F)F)cc1Cl)N1CCOCC1 the results were Ba CapD inh 0.04.
`O=C(Cn1c2ccccc2c(=O)c2cc([N+](=O)[O-])ccc21)Nc1ccc(Oc2ccccc2)cc1` gave Ba CapD inh 0.47.

Continuation:
Screening CC(C)c1ccc(/C=N/NC(=O)c2ccc(OC(F)(F)F)cc2)cc1 returned Ba CapD inh 4.6.
For Cc1ccc(-n2ncc3c(N(C)C)ncnc32)cc1 the results were AID504770 1.7.
CCOC1Cc2ccccc2N(C(N)=O)c2ccccc21 (stereo not given) was read as Ba CapD inh -0.49 and AID504770 2.1.
`O=C1CCCC2=C1C(c1ccc(OCc3ccccc3F)cc1)Nc1ccc3ccccc3c12` (stereo not given) gave Ba CapD inh 3.7.
Screening O=C(Cn1c(=O)n(Cc2ccc(C(=O)NCc3ccco3)cc2)c(=O)c2sccc21)Nc1ccc(F)cc1 returned Ba CapD inh 0.14 and AID504770 0.25.
CC1(O)CC(c2ccccc2)SC(c2ccccc2)C1 (stereo not given) was read as Ba CapD inh -0.35 and AID504770 1.4.
For O=C1CCCCC1C(=O)c1cccc(C(F)(F)F)c1 (stereo not given) the results were Ba CapD inh -0.37 and AID504770 0.4.
Screening O=C(Cn1cnc2c(cnn2-c2ccccc2)c1=O)N1CCc2ccccc21 returned Ba CapD inh -0.43 and AID504770 0.25.
`CSc1nc(NCc2ccccc2)c(C#N)c(-c2ccccc2)n1` gave Ba CapD inh 3.3 and AID504770 -0.6.
`COC(=O)c1csc2c(C(F)(F)F)cc(N3CCN(C(=O)Nc4ccc(F)cc4)CC3)nc12` gave Ba CapD inh 8.7.

Structures from the list above containing a thiophene ring, fused or not, in the order listed:
`Cc1cc(C)c2c(-n3cccc3)c(C(=O)N3CCC(C)CC3)sc2n1` gave Ba CapD inh -0.1 and AID504770 -1.5.
Screening O=C(Cn1c(=O)n(Cc2ccc(C(=O)NCc3ccco3)cc2)c(=O)c2sccc21)Nc1ccc(F)cc1 returned Ba CapD inh 0.14 and AID504770 0.25.
`COC(=O)c1csc2c(C(F)(F)F)cc(N3CCN(C(=O)Nc4ccc(F)cc4)CC3)nc12` gave Ba CapD inh 8.7.

The listing picks up, repeating the two entries before the break.
`CSc1nc(NCc2ccccc2)c(C#N)c(-c2ccccc2)n1` gave Ba CapD inh 3.3 and AID504770 -0.6.
`COC(=O)c1csc2c(C(F)(F)F)cc(N3CCN(C(=O)Nc4ccc(F)cc4)CC3)nc12` gave Ba CapD inh 8.7.
Screening Nc1nnc(SCC(=O)N2c3ccccc3Sc3ccccc32)s1 returned Ba CapD inh 0.35 and AID504770 -0.3.
For Cc1cc(OC(C)C(=O)Nc2sc3c(c2C(N)=O)CCCCCC3)ccc1Cl (stereo not given) the results were Ba CapD inh 18 and AID504770 0.45.
For CC(=O)N/N=C/c1ccc(-c2cccc(C(=O)O)c2)o1 the results were Ba CapD inh 2.2 and AID504770 -0.95.
For CCCn1c(=N)c(C(=O)NC)cc2c(=O)n3cc(C)ccc3nc21 the results were Ba CapD inh 16 and AID504770 -0.15.
COC(=S)Nc1cccc(C(F)(F)F)c1 was read as Ba CapD inh 0.44 and AID504770 0.05.
Screening Clc1ccc(Nc2nc(N3CCOCC3)c3ccccc3n2)cc1 returned Ba CapD inh 15.
CCOC(=O)c1c(NC(=O)CCN2CCC(C)CC2)sc2c1CCC2 was read as Ba CapD inh 0.87 and AID504770 -0.1.
Screening COc1cc(S(=O)(=O)N2CCCCC2C)c(OC)cc1Cl (stereo not given) returned AID504770 1.2.
For COc1ccc(N2C(=O)CSC23C(=O)N2CCCc4cccc3c42)cc1 (stereo not given) the results were AID504770 -0.75.
For COC(=O)C1CCN(C(=O)c2cc(-c3ccccc3)nc3ccccc23)CC1 the results were Ba CapD inh 0.3.
For O=C(CSc1nc2c(c(=O)n1-c1ccccc1)SCC2)N1CCCc2ccccc21 the results were Ba CapD inh 13 and AID504770 -0.15.
Screening Cc1ccccc1C(OCC(O)CN1CCC(C(N)=O)CC1)c1ccccc1 (stereo not given) returned AID504770 -0.6.
For CC(C)N(Cc1ccc(N(C)C)cc1)S(=O)(=O)c1cccc(C(F)(F)F)c1 the results were Ba CapD inh 0.1 and AID504770 -0.2.
`CC(C)(C)C(=O)NCC(=O)NC1=NCCS1` gave AID504770 -0.05.
For CSc1nc2nc(C)c(Cc3cccc(F)c3)c(C)n2n1 the results were Ba CapD inh -0.56 and AID504770 -0.25.
For CCOC(=O)c1sc2nccc(N(C)C)c2c1N=CN(C)C the results were Ba CapD inh 1.9 and AID504770 -1.
For O=C(NN=Cc1ccccc1[N+](=O)[O-])c1ccc2ccccc2c1 the results were Ba CapD inh 0.57.
For CCOC(=O)c1c(Nc2nc3ccccc3nc2N2CCN(C)CC2)sc2c1CCCC2 the results were AID504770 -0.95.
`c1ccc2[nH]c(CSCCC3CCCCC3)nc2c1` gave Ba CapD inh 0.56 and AID504770 0.05.
CC(=O)N1CCc2cc(NS(=O)(=O)c3ccc(C(C)(C)C)cc3)ccc21 was read as Ba CapD inh -0.8.
`COc1ccc2[nH]cc(NC(=O)N3CCN(C)CC3)c(=O)c2c1` gave AID504770 -0.2.
Screening COc1ccc(N2C(=O)CSC2c2ccccc2Br)c(OC)c1 (stereo not given) returned Ba CapD inh 1.2.
Screening CC(NC(=O)C1CCCN(S(=O)(=O)c2ccc3c(c2)CC(C)N3C(=O)C2CC2)C1)c1ccccc1 (stereo not given) returned Ba CapD inh -0.29 and AID504770 0.
COc1ccc(C2CC(=O)C3=C(C2)Nc2ccccc2NC3c2ccc(OC)c(OC)c2OC)cc1OC (stereo not given) was read as Ba CapD inh -1.5.
For CCOC(=O)COc1cc(C)cc2oc(=O)c3c(c12)CCCC3 the results were Ba CapD inh 4.3.
For O=c1c2oc3ccccc3c2[nH]c(=S)n1CCc1ccccc1 the results were Ba CapD inh 1.1 and AID504770 0.8.
For CN(C(=O)c1ccccc1)c1nc(-c2ccccc2)cs1 the results were AID504770 -0.7.
`CN1CCCC(n2nc(Cc3ccc(Cl)cc3)c3ccccc3c2=O)CC1` (stereo not given) gave AID504770 0.4.
Cc1oc2ccc(NS(=O)(=O)c3ccc4c5c(cccc35)C(=O)N4)cc2c1C(=O)OC(C)C was read as Ba CapD inh 0.18.
Screening COC(=O)c1ccc(S(=O)(=O)Nc2ccc(N3CCOCC3)cc2)n1C returned Ba CapD inh 0.15 and AID504770 -0.7.
`CCOC(=O)C1CCN(Cc2nc3ccccc3c(=O)n2-c2ccc(OCC)cc2)CC1` gave Ba CapD inh -0.31 and AID504770 -0.45.
`Cc1ncsc1CCOC(=O)NCCc1c[nH]c2ccc(O)cc12` gave Ba CapD inh -1.1.
`CCOC(=O)C1=C(N)OC2=C(C(=O)CC(C)(C)C2)C1c1ccccc1[N+](=O)[O-]` (stereo not given) gave Ba CapD inh 0.55.
`CCCn1c(CCCO)nc2ccccc21` gave Ba CapD inh 0.24 and AID504770 -0.55.
Screening CCc1ccc(Nc2nc3cc(OC)ccc3cc2C#N)cc1 returned Ba CapD inh 8.5.
CCNCc1cccs1 was read as AID504770 -0.1.
For COc1ccccc1NC(=O)c1ccccc1NS(=O)(=O)N1CCCC1 the results were Ba CapD inh 6.5 and AID504770 -0.3.
For CCOC(=O)c1c(C)[nH]c(C(=O)C(C)C)c1C the results were AID504770 2.5.
`CC1CC(CN)CC(CO)C1` (stereo not given) gave AID504770 -0.3.
Screening Oc1c(Br)cc2oc3c(c2c1CNc1ccc(I)cc1)CCCC3 returned Ba CapD inh -0.17.
Screening NC(=O)NCc1ccco1 returned AID504770 0.5.
`CC12CN(C(=O)c3ccccc3)C3(C#N)CC1CCC23C` (stereo not given) gave Ba CapD inh 0.29 and AID504770 -0.4.
O=C(O)CC(NC(=O)Nc1ccccc1)c1ccsc1 (stereo not given) was read as Ba CapD inh 0.46 and AID504770 -0.1.
Screening COc1ccc(C)cc1N=Cc1ccc(C)s1 returned Ba CapD inh -0.025 and AID504770 -0.25.
For CCOC(=O)c1nn(-c2ccccc2)c(=O)cc1SC1CCCCC1 the results were Ba CapD inh -0.28.
For O=C(c1ccc(F)cc1)c1coc2ccc(O)cc12 the results were Ba CapD inh -0.34 and AID504770 1.4.
For O=C(NCc1cccc([N+](=O)[O-])c1)OCCc1ccccc1Br the results were Ba CapD inh -0.98.
O=C(O)CSCC(=O)Nc1nnc(C2CC2)s1 was read as Ba CapD inh 0.52 and AID504770 -0.35.
Screening O=C(NNC(=O)c1ccc2c(c1)OCO2)OCCc1c(F)cccc1Cl returned Ba CapD inh -1.1.
`CCOC(=O)c1cnc2c(c(C)nn2C)c1NCc1ccco1` gave Ba CapD inh 0.33 and AID504770 0.9.
For CCCC1CCC(c2ccc(OC(=O)c3ccco3)cc2)CC1 (stereo not given) the results were Ba CapD inh -0.01 and AID504770 0.1.
CN(C)/C=C/C(=O)c1cc(-c2ccccc2)no1 was read as Ba CapD inh -3.7 and AID504770 -0.7.
`CC(C)c1nc(-c2c(N)n(C)c(=O)n(C)c2=O)sc1C(=O)C(C)(C)C` gave AID504770 0.65.
`N#CCc1cccc(N)c1` gave AID504770 -0.6.
For O=C(c1cnc(-c2ccccc2)nc1-c1ccccc1)N1CCOCC1 the results were Ba CapD inh -0.71 and AID504770 -0.75.
For c1csc(-c2noc(CCCN3CCNCC3)n2)c1 the results were AID504770 -0.75.
For COc1ccc(C2(C(=O)NCC3CCCO3)CCOCC2)cc1 (stereo not given) the results were Ba CapD inh 0.52 and AID504770 0.05.
For Cc1cccc(NS(=O)(=O)c2cccc(C(=O)OC(C)C(N)=O)c2)c1 (stereo not given) the results were AID504770 -0.35.
Cc1ccc(C(C)C)c(OCCCCn2ccnc2)c1 was read as AID504770 -0.25.
For COc1ccc(-c2nc3ccccc3n2C(=O)c2ccccc2C(=O)O)cc1 the results were Ba CapD inh 9.7 and AID504770 -0.5.
`O=C(NC(=O)c1ccc(F)c(Cl)c1)Nc1nnc(C(F)(F)F)s1` gave Ba CapD inh -2 and AID504770 1.5.
`CN1C=CC(=C2C(=O)c3ccccc3C2=O)C=C1` gave AID504770 -0.2.
For Cc1ccc(N/C(SCc2cccc(Br)c2)=C(/C#N)C(N)=O)cc1C the results were Ba CapD inh 0.28.
`CC(C)CC(C(=O)Nc1ccc(Cl)cc1)N1C(=O)c2ccccc2C1=O` (stereo not given) gave Ba CapD inh -0.3.
`COC(=O)c1c(C)[nH]c(C(=O)OCC(=O)Nc2ccccc2)c1C` gave AID504770 -0.35.
For CCc1cccc(C)c1NC(=O)CSCc1cnn(-c2ccccc2)c1-n1cccc1 the results were Ba CapD inh 0.6 and AID504770 0.25.
`Cn1cc(S(=O)(=O)N2CCCC2)cc1C(=O)N1CCC(Cc2ccccc2)CC1` gave Ba CapD inh -0.97 and AID504770 -0.15.
For O=C1/C(=C/c2ccc(-c3ccc([N+](=O)[O-])cc3)o2)C=C(c2ccccc2)N1c1ccc(O)cc1 the results were Ba CapD inh -0.95.
For COc1cccc(-c2noc(C3CCCN(C(=O)Cc4ccccc4)C3)n2)c1 (stereo not given) the results were AID504770 -0.5.
Screening O=C(NCC1COc2ccccc2O1)c1ccc(NC(=O)C2CCCO2)cc1 (stereo not given) returned Ba CapD inh -0.16 and AID504770 -0.8.
Screening COc1ccc(NC(=O)CC23CC4CC(CC(C4)C2)C3)cc1 returned Ba CapD inh 0.23.
Cc1cc(=O)[nH]c(SCc2cccc3cccnc23)n1 was read as AID504770 -0.3.
`CCc1ccc(NC(=O)N2CCOc3ccccc32)cc1` gave Ba CapD inh -0.54 and AID504770 -0.05.
COc1cc2nc(SCC(=O)N(C)C3CCCCC3)n3nc(C)nc3c2cc1OC was read as Ba CapD inh -0.38 and AID504770 -0.1.
For CC(C)c1nnc(NC(=O)C(C(C)C)N2C(=O)c3ccccc3C2=O)s1 (stereo not given) the results were Ba CapD inh 0.81 and AID504770 0.05.
`Cc1ccc(NC(=O)CC2S/C(=N/N=C/c3cccs3)NC2=O)cc1` (stereo not given) gave Ba CapD inh 0.19 and AID504770 0.6.
`NC(=O)Oc1cccc2ccccc12` gave Ba CapD inh 2.4 and AID504770 -1.5.
Screening CC1CCc2cc(F)ccc2N1C(=O)Cn1c2ccccc2c(=O)c2ccccc21 (stereo not given) returned Ba CapD inh 22.

Bioassay records (PubChem BioAssay)
